Sfp PPTase inh: Sfp phosphopantetheinyl transferase inhibition | Q9F4F7 | Biochemical Sfp PPTase activity, qHTS | Potency, µM, for inactives: max response, negative = inhibition, hits mostly inhibitors | 310,000 compounds, 3.5% hits | AID 1490; active = well fitted inhibition curve with a large enough effect; inconclusive = small, poorly fitted or top-dose-only effect, or another doubt; inactive = no such curve, though single readings can be large or run the other way;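 also: the enzyme is Sfp with the accession as filed and its product quenches rhodamine fluorescence; potency is read from the fitted curve at half-maximal effect; 0% = enzyme reaction without inhibitor and -100% = no enzyme wells; top concentration of the series not given in the record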
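Reaction rates are the 30-min fluorescence difference (ex 525, em 598 nm) in wells containing 15 nM Sfp, 5 uM rhodamine-CoA and 12.5 uM BHQ-2-YbbR at pH 7.6 with 10 mM MgCl2.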
Menin-MLL FL inh: displaces fluorescein MLL peptide from human menin | FP activity change, % at 61.4 µM | AID 1766 | Fluorescence polarization, fluorescein-MLL peptide displacement from menin | 290,000 tested, under 10 active; inconclusive = falling polarisation curve, or a change in total fluorescence; inactive = total fluorescence flat and polarisation flat or rising; no compound was filed as active; the % refers to the polarisation; negative = inhibition;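 also: % of control where 0% means no effect; inhibitors lower the polarisation; unlabelled MLL peptide was the positive control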
D2 PAM: human D2 receptor positive allosteric modulation. 360,000 compounds, 0.23% hits. potentiation, % (test concentration not listed). DiscoveRx D2 beta-arrestin cells, luminescence, 90 min; 100% = 57 uM dopamine signal. P14416; active = potentiation of 50% or more; inconclusive = 30% to 50%; inactive = 30% or less;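 also: compound concentration not given in the record; tested on top of an EC20 dose of dopamine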
Target sequence (P14416 whole entry, looked up): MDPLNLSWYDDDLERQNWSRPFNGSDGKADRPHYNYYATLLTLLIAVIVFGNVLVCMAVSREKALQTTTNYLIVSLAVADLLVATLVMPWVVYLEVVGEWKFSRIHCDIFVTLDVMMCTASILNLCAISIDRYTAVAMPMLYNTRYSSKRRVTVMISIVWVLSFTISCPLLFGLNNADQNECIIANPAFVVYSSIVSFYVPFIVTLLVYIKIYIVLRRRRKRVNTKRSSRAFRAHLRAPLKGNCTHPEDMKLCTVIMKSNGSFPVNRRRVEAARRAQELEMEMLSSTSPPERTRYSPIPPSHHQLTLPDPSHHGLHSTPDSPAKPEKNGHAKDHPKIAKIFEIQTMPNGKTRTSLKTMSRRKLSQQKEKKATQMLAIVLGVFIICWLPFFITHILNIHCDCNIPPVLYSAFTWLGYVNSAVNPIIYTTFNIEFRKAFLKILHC
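PathHunter beta-arrestin assay in DiscoveRx D2 cells. Compounds were added with an EC20 of dopamine (50 nM final) for 90 min at 37 deg C. Luminescence was read 1 h after detection reagent, with 57 uM dopamine as the EC100 control.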
gsp agonist: agonists of gsp mutant (McCune-Albright syndrome). gsp mutant cells, cAMP HTRF, 30 min; control for the full effect not named in the record. Potency, µM (doses to about 76.9 µM), for the others: at the top dose activation (cAMP increase), usual class: activators. 340,000 compounds, 0.13% hits; active = well fitted activation curve with a large enough effect; inconclusive = small, poorly fitted or top-dose-only effect, or another doubt; inactive = no such curve, though single readings can be large or run the other way; cell line not stated here;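 also: phosphodiesterase inhibitor Ro 20-1724 added with compounds to block cAMP breakdown; potency is read from the fitted curve at half-maximal effect; nearly all actives have a fitted effect of over 60% in size; about a fifth of the inactives were tested at one dose only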
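Cells in DMEM/10% FBS with G418 were pretreated with compounds in DMSO plus […] (300 uM stock) for 30 min at 37C. cAMP was measured by HTRF (cAMP-d2 plus anti-cAMP antibody-K) after 30 min at room temperature.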
gsp antag: antagonists of gsp mutant (McCune-Albright syndrome) | gsp-mutant cells, cAMP HTRF, 30 min; control for the full effect not named in the record | Potency, µM (highest dose often 76.9 µM), inactives show at the highest dose activity change, negative = inhibition, usual class: inhibitors | 340,000 compounds, 0.4% hits | AID 624288; active = falling curve of any shape with a large fitted effect; inconclusive = falling curve, mostly with a smaller effect; inactive = flat or rising curve; cell line not stated here;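 also: intracellular cAMP measured with PDE inhibitor Ro 20-1724 present during compound exposure; potency is read from the fitted curve at half-maximal effect; % is scaled to controls: 0 for no effect and ±100 for the full control effect; nearly all actives have a fitted effect of over 65% in size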
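Cells, 2000/well, grown 16–24 h in DMEM 10% FBS with 0.5 mg/ml G418, then compounds plus […] (300 uM addition stock), 30 min at 37C. cAMP read by HTRF (cAMP-d2 and anti-cAMP antibody-K in lysis buffer) after 30 min RT.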
ClpP mod: qHTS Assay for Activators of ClpP; AID 651965, 2013; Potency, µM (doses to about 57.5 µM), without a hit: at the highest dose activity change, negative = active; purified B. subtilis ClpP, FRET peptide cleavage, 20 min; 340,000 compounds, 1.9% hits; ATP-dependent Clp protease proteolytic subunit (Bacillus subtilis (strain 168)), P80244; active = well fitted falling curve with a large enough effect; inconclusive = small, poorly fitted or top-dose-only effect; inactive = no such curve, though single readings can be large or run the other way; also: potency is read from the fitted curve at half-maximal effect; the source files actives as falling curves though it sought activators and does not explain the sign; nearly all actives have a fitted effect of over 65% in size; many hits overshoot -100%
Target sequence (P80244 whole entry, looked up): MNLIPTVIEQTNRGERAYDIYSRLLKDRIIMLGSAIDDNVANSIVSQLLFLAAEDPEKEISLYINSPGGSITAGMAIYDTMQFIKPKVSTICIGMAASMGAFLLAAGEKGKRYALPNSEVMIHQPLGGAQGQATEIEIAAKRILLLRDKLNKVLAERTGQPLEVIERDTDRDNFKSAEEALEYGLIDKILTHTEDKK
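ClpP 10 microg/mL final, pH 8 Tris/KCl buffer with BSA, glycerol, Tween-20; compound pinned in; FRET-FV substrate; RT 20 min; Ex320/Em430; ΔFRET vs ADEP 5.8 microM, DMSO, no enzyme.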
TRPV1 PAM: potentiators of human vanilloid receptor 1 (TRPV1). Q8NER1. TRPV1-expressing cells, Fluo-8 calcium influx, capsaicin EC20 potentiation; host cell line not named in the record; control for the full effect not named in the record. potentiation, % at 8.33 µM. 320,000 compounds, 0.02% hits. AID 540277; active means potentiation above 80%; inconclusive means 30% to 80%; inactive means below 30%; also: 0% is about no effect
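TRPV1-expressing cells were cultured overnight at 35.5C and loaded with Fluo-8 calcium dye for 40 to 90 min at room temperature. After a 10 s baseline, compound was added and calcium influx was read kinetically for 3 min (ex 480/em 520 nm).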
* hit, by the source's call; i = inactive; ? = inconclusive; nt = no result given; & = joins results of further samples; [ ] = another dose, or the depositor's remark. Rows are unselected. About 5.1% of those tested had a hit in this group.

SMILES | Sfp PPTase inh | Menin-MLL FL inh | D2 PAM | gsp agonist | gsp antag | ClpP mod | TRPV1 PAM
Cc1ccc(S(=O)(=O)N2[C@@H](c3ccccc3F)C(C(=O)O)=CC[C@H]2c2ccc(Cl)c(Cl)c2)cc1 | nt | nt | -5 | -17% | -12% | 0.3% | -6
Cn1cc(C(=O)c2ccc(F)cc2)cc1-c1nc2ccccc2n1C | 3% | 5.6 | 1 | 9% | ? | -3.3% | -21
COCCn1cnnc1SCC(=O)Nc1cccc(S(=O)(=O)N2CCCCC2)c1 | nt | nt | -10 | 28% | 13% | 0.6% | -4
Cc1ccc(/C=N/NC(=O)c2cccnc2)s1 | 17% | 2.4 | -2 | ? | 13% | nt | -13
COCc1ccc(C(=O)N2CCCC(N(C)CCc3ccccc3)C2)s1 (stereo not given) | nt | nt | -25 | -10% | nt | -3.3% | nt
COc1ccc([C@]23Cc4cc(C#N)ccc4C(O2)c2c(cc(-c4ccccc4)oc2=O)O3)cc1 | -10% | 5.5[11.7 µM] | nt | nt | nt | nt | i
CCCCCCCCNC(=O)/C(C#N)=C/c1ccc(SC)cc1 | 7% | -7.2 | -6 | ? | 13% | -4.3% | -15
O=C1CN(C(=O)CC2c3ccccc3-c3ccccc32)CC(=O)N1 | 10% | 6.8 | 24 | -21% | -4% | -0.2% | -32
COc1ccc(-c2nc(=S)c3ccc4ccccc4c3[nH]2)cc1 | 17% | 0.8 | -1 | 26%[15.4 µM] | 13% | nt | 4
CN(C(=O)c1ccc(NC(=O)Cc2ccc([N+](=O)[O-])cc2)cc1)C1CCCC1 | nt | nt | -7 | ? | -9% | 0.0% | nt
CCCc1ccc2oc(C(=O)N3CCN(CCC(N)=O)CC3)c(C)c2c1 | 3% | 1.6 | -2 | -31%[inhibitor] | 11% | nt | -29
CC(C)(C)/C=N/NC(=O)C1CC1 | 2% | 3.4 | 5 | -23% | 6% | 2.2% | 2
c1ccc2c(NCCCN3CCOCC3)c3ccccc3nc2c1 | 3% | -0.5 | nt | nt | nt | nt | 9
Cc1ccc(S(=O)(=O)ON2C(=O)c3ccccc3C2=O)c(C)c1 | 10µM* | 5.5 | -9 | 1%[15.4 µM] | 2% | 0.1% | 0
Cc1ccc(OCCNC(=O)C2CC(=O)N(Cc3ccccc3)C2)cc1 (stereo not given) | nt | nt | -9 | 26% | 9% | -1.6% | -5
O=C(c1ccc(NC2=NC3CS(=O)(=O)CC3S2)cc1)N1CCN(c2ccccc2)CC1 (stereo not given) | -1% | -4.4 | -7 | -32%[inhibitor] | 7% | -0.2% | 4
CCOc1ccc(N(CC(=O)NC2CCCC2)C(=O)Cn2nnc(-c3ccc(C)o3)n2)cc1 | 8% | 3.2 | -7 | -53%[inhibitor] | -7% | nt | 1
Cc1cc(C)n(-c2nc(-c3cccc(Cl)c3)cs2)n1 | -26% | -0.5 | -8 | -24% | 1% | 0.4% | 0
CC(=O)Nc1ccc(S(=O)(=O)N2CCC(C(=O)O)CC2)cc1 | 23% | -2.2 | 4 | 3% | 7% | nt | 11
Cc1cc(C)nc(N(C#N)Cc2ccccc2Cl)n1 | 2% | 5.6 | 1 | -38%[inhibitor] | 4% | 0.6% | nt
CCOC(=O)c1sc(=S)n(-c2ccccc2)c1SC | -12% | 3.3 | 6 | -6% | -3% | -3.3% | -6
CC(C)=CCC[C@](C)(OC1OC(COC2OCC(O)C(O)C2O)C(O)C(O)C1O)C1CC[C@]2(C)C1C(O)CC1[C@@]3(C)CCC(O[C@@H]4O[C@H](CO)C(O)C(O)C4O[C@@H]4OC(CO)C(O)C(O)C4O)C(C)(C)C3CC[C@]12C (stereo not given in full) | nt | nt | 2 | nt | 17% | -0.7% | nt
COc1ccc(CNC(=O)/C=C/c2ccc(OCCCF)cc2)cc1OC | 2% | 4.2 | 12 | 15% | -4% | -5.3% | -8
O=C(Cn1c2ccc(F)cc2c2nc3n(c(=O)c21)CCS3)NC1CCCC1 | -8% | -1.5 | -7 | ? | 5% | nt | -5
Cc1cnc(NC(=O)Cc2ccccc2F)s1 | 8% | -2.7 | -3 | 10% | 1% | nt | 3
COc1cc(OC)c(NC(=O)C2CCN(S(=O)(=O)c3ccc4c(c3)CC(C)N4C(C)=O)CC2)cc1Cl (stereo not given) | 16% | 2.1 | -10 | 12% | ? | -1.9% | -5
Cc1cc2nnc(SCC(=O)NCC(c3ccccc3)N(C)C)n2c2ccccc12 (stereo not given) | 13% | nt | -32 | 11% | 12% | -8.6% | -4
O=C(NCC(=O)N(Cc1ccco1)C(C(=O)NC1CCCC1)c1cccnc1)c1ccco1 (stereo not given) | nt | nt | -17 | 16%[15.4 µM] | 0% | ? | nt
CCCN(CC1CC1)C(=S)Nc1ccc(Oc2ccccc2)cc1 | 13% | 3.3 | -1 | 0% | -21% | -1.4% | 9
CC(=NNC(=S)SCc1ccccc1)c1ccccn1 | nt | nt | 9 | -10% | 15% | 1.0% | nt
CCCCCCn1c(NCC)nc2c1c(=O)n(C)c(=O)n2C | -17% | -1.7 | -10 | ? | -3% | -1.2% | -7
Cc1cc(C)nc(SCCc2ccncc2)n1 | -6% | -0.8 | -16 | 23% | 5% | 0.1% | 9
COc1cc(C(=O)N(Cc2ccc(C)o2)C2CCS(=O)(=O)C2)cc(OC)c1OC (stereo not given) | 23% | -2.2 | 0 | -3% | -4% | 0.6% | -19
COc1ccc(C=NNC(=O)NN=Cc2ccc(OC)c(OC)c2)cc1OC | nt | nt | -2 | -4% | -13% | nt | nt
Cc1noc(C)c1C(=O)N(CC(=O)Nc1ccccc1Br)Cc1ccco1 | nt | nt | 0 | ? | 4% | 29% | -5
O=C(CC1C(=O)NCCN1Cc1cccc(C(F)(F)F)c1)NCCCOc1cccnc1 (stereo not given) | 2% | nt | -10 | ? | 13% | -2.9% | -16
CCNCC(O)COCC(O)CNCC (stereo not given) | 3% | -2.2 | 7 | 16% | -1% | 0.1% | -21
COc1ccccc1C(=O)Oc1ccccc1C(=O)Nc1ccccc1 | 9% | 0.5 | 11 | 13% | -3% | -1.0% | 11
O=C(/C=C/c1cccc([N+](=O)[O-])c1)N1CCOCC1 | -8% | 4.9 | -3 | ? | 7% | -2.2% | -17
O=c1[nH]c2cc(Br)cnc2nc1/C=C(\O)c1ccc(F)cc1 | 19% | ? | -4 | -5% | -2% | -3.2% | -2
NC(=O)CC(NC(=O)Cc1cccc2ccccc12)c1ccc(N2CCC(Cc3ccccc3)CC2)c([N+](=O)[O-])c1 (stereo not given) | 19% | -15 | -12 | -40%[inhibitor] | -5% | 0.1% | -4
c1cc(-n2cnnn2)ccc1NC1=NCCC1 | 1% | -0.3 | 2 | -5% | -1% | 0.7% | -1
CSc1nc(-c2ccccc2F)c(C#N)c(=O)n1C | 19% | -1.5 | -1 | 0% | -10% | -0.5% | -1
Cc1ccc(S(=O)(=O)N2CCN(C)CC2)c2nsnc12 | 10% | -15 | -8 | -9% | 15% | nt | ?
Cc1c(CCO)c(=O)n(C)n1C(=O)c1ccc(Cl)cc1 | 6% | 5.9 | -3 | -38%[inhibitor] | -7% | 0.5% | -5
O=S(=O)(CCN1CCN(C(c2ccccc2)c2ccccc2)CC1)C(F)(F)F | 6% | -1.3 | -7 | -21% | 2% | 0.1% | 3
Cc1ccc(N2C(=O)c3n[nH]c(C)c3C2c2ccco2)cc1 (stereo not given) | -12% | -2.4 | -8 | -1% | -8% | 0.6% | -46
COc1ccc(NC(=O)N(CCN2CCCC2)Cc2cc3cc(OC)c(OC)cc3[nH]c2=O)cc1 | 14% | 0.0 | -13 | ? | -1% | -25% | -13
COc1ccc(/C(C)=N/NC(=O)Cn2nc([N+](=O)[O-])cc2C)cc1 | 0% | 0.5 | -6 | -8%[15.4 µM] | -1% | nt | -18
CCc1ccccc1NS(=O)(=O)c1ccc(OC)c2ncccc12 | 19% | -0.1 | 22 | 0% | 28µM* | 0.9%&-2.3% | -3
COC(=O)[C@]1(C)CCC[C@@]2(C)C3CC[C@@]4(C)C[C@]3(CCC21)CC4=NO (stereo not given in full) | nt | nt | -6 | nt | 5% | 0.1% | -23
O=C(Cc1ccc(Cl)cc1)Nc1ccc(S(=O)(=O)N2CCOCC2)cc1 | -6% | 1.6 | -1 | -18%[15.4 µM] | nt | nt | -24
O=[N+]([O-])c1ccc(CNc2ccc(Cl)cc2)s1 | 3% | 3.2 | ? | 8%[15.4 µM] | -4% | -0.5% | 4
COC(=O)COc1ccc2cccc(-n3cnnn3)c2c1 | 22% | 0.0 | -2 | 7%[15.4 µM] | 10% | nt | 3
CCCn1nnc(NC(=O)/C=C/c2ccccc2)n1 | 11% | 0.8 | 2 | 6%[15.4 µM] | 2% | nt | -8
Nc1nc(SCC(=O)Nc2cccc([N+](=O)[O-])c2)n[nH]1 | nt | nt | -6 | 18% | -1% | nt | nt
O=C(CCc1nnc(-c2ccc3c(c2)OCO3)o1)NC(c1cccnc1)C(F)(F)F (stereo not given) | 12% | -2.5 | -4 | 0% | 8% | nt | -15
Cc1cc(C)c(NC(=O)C(=O)NCc2ccco2)c(C)c1 | 17% | 4.5 | -7 | 13%[15.4 µM] | 14% | nt | 5
COc1ccccc1NC(=O)CCCC(=O)OCC(=O)c1ccc(F)cc1 | 16% | nt | -5 | 2% | -5% | nt | 3
O=C(NCCOc1ccccc1F)C1CCC(=O)N(CC2CCCCC2)C1 (stereo not given) | 21% | 0.6 | -8 | 16% | 3% | -3.3% | -22
(further entries)
SMILES | Sfp PPTase inh | Menin-MLL FL inh | D2 PAM | gsp agonist | gsp antag | ClpP mod | TRPV1 PAM
O=C(NC(=S)NCc1ccccc1)c1cccc(Cl)c1 | -6% | -2.9 | -6 | 21%[15.4 µM] | -5% | -2.3% | -12
Cc1nc(C#N)c(NCc2ccc3c(c2)OCO3)o1 | 23% | 0.1 | -3 | -23% | 6% | 1.4% | 16
Cc1ccc(S(=O)(=O)N2CCN(C(=O)COC(=O)COc3ccccc3C(C)C)CC2)c(C)c1 | nt | nt | 0 | -24% | ? | -0.8% | nt
CCN1C(=O)CC(Sc2ccccc2C(=O)O)C1=O (stereo not given) | 7% | 6.4 | 4 | 26% | -1% | -0.8% | 2

From PubChem
